# Mtb H37Rv – M. tuberculosis H37Rv growth inhibitors, H37Rv strain (AID 1626); actives 0.95% (n = 220,000); M. tuberculosis H37Rv growth inhibition; higher % means a stronger effect; inhibition, % at 10 µM, or IC50 in µM where a hit was titrated;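 active = confirmed in a dose series; inconclusive = inhibition above 80% but not taken into the dose series; inactive = below 80% or under 30% at every dose of the series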;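 note: bacteria incubated seven days before Alamar blue readout; 0% = bacteria only wells and 100% = bacteria with antibiotic wells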
# Arbovirus inh – blocks arbovirus infection; inhibition, % at 10 µM; actives 0.37% (n = 200,000); AID 1251; arbovirus infection cell-based antiviral screen;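 active = inhibition from about 30%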;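 note: bluetongue infection of BSR cells; cell survival read as ATP light after 72 h; 0% = infected wells without compound and 100% = uninfected wells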
# YopH PTP inh – blocks Yersinia enterocolitica YopH tyrosine phosphatase | fluorescence Ex485/Em525 | inhibition, %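 (about 10 µM by stock and volumes)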 | actives 0.16% (n = 140,000) | AID 898;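 active = inhibition of 50% or more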;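 note: controls were vehicle for no effect and minimum signal wells for full effect; inactives centre near -20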
# Mtb bLac sens – beta-lactam sensitization of Mtb H37Rv. M. tuberculosis H37Rv growth with meropenem, percent inhibition; hits of this screen are not shown here. inhibition, % at 25 µM. actives 0.27% (n = 330,000). AID 434955;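 active = about 74% or more and at least 40 points above the plate without the antibiotic, then above 30% in a dose series; inconclusive = first-round hits that could not be retested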;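 note: growth measured after seven days incubation then overnight dye step; 0% = bacteria only wells and 100% = bacteria with antibiotic; twin plates without the antibiotic show which effects depend on it; some results filed as inactive read as strong as hits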
# RecA intein inh – Mtb RecA intein splicing inhibition. inhibition, %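 (about 9 µM by stock and volumes)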. AID 2221. actives 0.75% (n = 290,000). cell-free RecA intein splicing, fluorescence. P9WHJ3; in the data active = inhibition above about 30%; inconclusive = no clear call, values can overlap the other calls;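 note: 0% = vehicle wells and 100% = reference inhibitor control wells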
# Target sequence (P9WHJ3 whole entry, looked up): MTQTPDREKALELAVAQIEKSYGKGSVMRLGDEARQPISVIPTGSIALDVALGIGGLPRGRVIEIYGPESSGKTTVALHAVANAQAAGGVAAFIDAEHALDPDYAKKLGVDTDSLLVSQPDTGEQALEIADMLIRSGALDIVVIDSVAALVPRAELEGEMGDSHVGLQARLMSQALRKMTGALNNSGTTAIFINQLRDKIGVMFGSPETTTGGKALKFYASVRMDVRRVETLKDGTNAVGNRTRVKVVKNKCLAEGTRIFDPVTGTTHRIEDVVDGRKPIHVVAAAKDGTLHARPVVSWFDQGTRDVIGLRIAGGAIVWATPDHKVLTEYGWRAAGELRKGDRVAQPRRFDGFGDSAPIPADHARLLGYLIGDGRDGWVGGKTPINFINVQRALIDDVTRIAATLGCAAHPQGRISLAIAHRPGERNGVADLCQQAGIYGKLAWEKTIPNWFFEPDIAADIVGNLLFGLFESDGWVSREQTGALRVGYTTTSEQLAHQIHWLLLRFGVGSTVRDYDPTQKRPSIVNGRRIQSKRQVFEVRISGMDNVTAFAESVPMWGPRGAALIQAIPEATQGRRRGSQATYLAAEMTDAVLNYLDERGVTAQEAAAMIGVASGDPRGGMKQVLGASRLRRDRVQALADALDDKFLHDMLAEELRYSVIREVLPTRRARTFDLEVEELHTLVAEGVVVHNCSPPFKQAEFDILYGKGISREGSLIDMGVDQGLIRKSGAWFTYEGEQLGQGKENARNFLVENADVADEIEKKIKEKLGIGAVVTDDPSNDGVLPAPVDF
# Arbovirus inh repeat – also measured in Arbovirus inh; calls as there; inhibition, %; measured here: 10K subset replicate screen; many hits read low in the repeat;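 first of two repeat runs on a subset; 0% = infected and 100% = uninfected wells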
# * marks the source's active call; other numbers are inactive results; ? = inconclusive; · = no result given. An excerpt; the hit share may differ from the screen's.
SMILES,Mtb H37Rv,Arbovirus inh,YopH PTP inh,Mtb bLac sens,RecA intein inh,others
Cc1ccc(NC(=O)N(Cc2ccco2)Cc2cc3cc(C)cc(C)c3nc2Cl)cc1,·,-9,20,·,2.0,
CCOC(=O)C1=C(O)/C(=C/c2cc(OC)c(OC)c(OC)c2)SC1=Nc1ccc(OC)cc1,·,13,-46,14,2.8,
COc1ccc(C2c3c(C)nn(-c4ccccc4)c3NC(=O)N2c2ccccc2)cc1 (stereo not given),?,-5,-26,·,0.8,
OC(COC(c1ccccc1)c1ccccc1)CN1CCOCC1 (stereo not given),-2%,11,·,-2,-2.8,
N/C(=N\OC(=O)/C=C/c1ccccc1)c1ccncc1,5%,4,·,-2,-3.0,
NC1=NC(=Nc2cccc(S(=O)(=O)N3CCOCC3)c2)c2ccccc21,-4%,·,·,-13,0.9,
CC(C)C(=O)Nc1c2c(nc3ccccc13)N(C)CC2,-6%,1,-23,6,0.0,
CCOC(=O)c1ccc(COC(=O)c2ccc(-c3nnc(-c4ccccc4)o3)cc2)o1,23µM*,·,-29,99,0.8,
CCC(C)Sc1cccc(-c2nc3ccc(Cl)cn3c2NCc2ccccc2)c1 (stereo not given),·,·,·,5,-5.3,
O=C(Nc1cnn(Cc2ccc(F)cc2)c1)c1cc2nc(-c3ccco3)cc(C(F)(F)F)n2n1,-3%,-5,-35,-7,-0.5,
C=CCn1c(COc2cccc3cccnc23)nnc1SCC(=O)OC,-8%,4,-8,-1,·,
O=[N+]([O-])c1ccc(Cl)c(/C=N/N2CCN(Cc3ccccc3)CC2)c1,0%,-1,17,74,11,
N#Cc1c(NCc2ccccc2)ccnc1NCc1cccnc1,3%,15,-5,0,1.8,
O=C(Cn1c(CC(=O)N2CCOCC2)nc2ccccc21)Nc1ccc2c(c1)OC(F)(F)O2,-8%,4,-30,4,0.6,
COc1ccc(CCNS(=O)(=O)c2cnc(Cl)c(Br)c2)cc1OC,-8%,·,·,-3,2.2,
CCN1CCN(S(=O)(=O)c2ccc(Cl)c(C(=O)NCc3ccco3)c2)CC1,·,·,·,-12,0.1,
CN(/C=C1/C(=O)CNC1=O)CCO,0%,0,·,-8,-1.1,
CCCCOC(=O)c1ccc(NC(=O)C(=O)NCc2ccco2)cc1,5%,-4,·,-14,1.1,
O=C(O)c1ccc(/C=C2\SC(=S)N(NC(=O)c3ccccc3[N+](=O)[O-])C2=O)cc1,·,·,·,10,-7.9,
CCCP(=O)(CC(=O)O)c1ccccc1 (stereo not given),-2%,8,-40,-3,·,
Cc1cc(N2CCCCC2)nc(-c2ccc(Br)cc2)n1,6%,2,·,48,14,
Cc1onc(-c2ccccc2Cl)c1C(=O)OCC(=O)c1c(N)n(C)c(=O)n(C)c1=O,0%,9,·,-2,0.9,
O=S1(=O)C=CC(Nc2ccccc2)C1 (stereo not given),1%,20,-14,6,-1.0,
O=C(O)c1ccc(CNC(=O)c2ccc(C(F)(F)F)cc2)cc1,-7%,7,·,-8,-1.9,
CCOC(=O)CSc1n[nH]c(-c2cccnc2)n1,·,-1,-34,-7,-0.1,
Oc1cccc(/C=N/n2c(C3CCCCC3)n[nH]c2=S)c1,·,·,·,?,0.0,
Cc1cc(C(=O)N2CCCC(N3CCN(Cc4ccc5c(c4)OCO5)CC3)C2)n[nH]1 (stereo not given),·,·,·,3,-2.4,
COc1cc(/C=C2\C(=N)N3N=C(S(C)(=O)=O)SC3=NC2=O)ccc1OCCOc1ccc(C)cc1,·,·,·,46,-22,
O=C(C1CC1)N1CCc2cc(Br)cc(S(=O)(=O)NCc3ccco3)c21,-14%,3,-15,-4,·,
CC1CCN(C(=O)c2ccc(N3C(=O)C4CCC(C)CC4C3=O)cc2)CC1 (stereo not given),-3%,·,·,-4,1.0,
Cc1ccccc1-c1nnn(CC(=O)Nc2ccc3c(c2)OCO3)n1,-1%,-6,·,-1,-4.0,
Cc1nnc(N/N=C/c2cccs2)[nH]c1=O,-4%,·,·,7,-0.3,
O=C(CCc1nc2ccccc2c(=O)[nH]1)OCc1ccc(Cl)cc1Cl,6%,0,-48,75,0.3,
CN(Cc1ccc(Cl)cc1)C(=O)CCl,63%,2,·,99,63*,
CC1CCCN(C(=O)CNC(=O)Cn2ccc3ccccc3c2=O)C1 (stereo not given),4%,-3,-18,0,2.4,Arbovirus inh repeat=4
CCOCCCNC(=O)c1cc2sc(Cl)cc2n1CC,0%,-24,-22,1,·,
Cc1ccc(OCC(=O)Nc2nnc(-c3ccco3)s2)cc1,·,·,·,-3,-1.7,
CCNC(=O)CSc1nc2ccccc2c(=O)n1-c1cc(OC)ccc1OC,1%,-3,3,-4,1.3,
Cc1ccc(CN2CCN(C(=O)c3cccc4ccccc34)CC2)cc1,·,·,·,5,6.2,
Cc1ccc(-c2nnc(N3CCN(C(=O)CN4CCOCC4)CC3)c3ccccc23)cc1,0%,3,0,-2,-9.0,
COc1ccc(C(CCNCc2ccc(OC)c(OC)c2)c2ccc(F)cc2)cc1 (stereo not given),2%,·,·,4,3.9,
Cc1ccc(S(=O)(=O)N2CCN(C(=O)CN3CCOCC3)C2)cc1,-7%,-7,-48,-7,-3.6,
NC(=O)COn1c(SCC(N)=O)nc2ccccc2c1=O,-3%,·,·,6,0.9,
Cc1ccccc1S(=O)(=O)Cc1ccc(C(=O)N2CCN(c3ncccn3)CC2)o1,1%,2,-21,-13,1.8,
CC(NC(=O)COc1ccc(-c2ccccc2)cc1)C1CCCO1 (stereo not given),·,·,·,9,-0.7,
O=C1c2ccccc2-c2nnc(-c3ccc(O)cc3)cc21,?,-21,·,58,49*,
O=C(O)Cn1cc(/C=N/Nc2ccc([N+](=O)[O-])cn2)c2ccccc21,·,·,·,7,-2.0,
COc1ccc(C2CN(C)CC2C(=O)c2ccc(C)cc2)cc1Cl (stereo not given),21%,-6,·,1,3.7,
COc1ccc2nc(NC(=O)c3ccco3)sc2c1,·,·,·,2,-0.3,
CCc1ccc(-c2cc(C)no2)cc1S(=O)(=O)N1CCN(C(=O)c2ccco2)CC1,·,·,·,-2,3.3,

# Compounds shown so far with two or more sulfur atoms (two):
SMILES,Mtb H37Rv,Arbovirus inh,YopH PTP inh,Mtb bLac sens,RecA intein inh,others
O=C(O)c1ccc(/C=C2\SC(=S)N(NC(=O)c3ccccc3[N+](=O)[O-])C2=O)cc1,·,·,·,10,-7.9,
COc1cc(/C=C2\C(=N)N3N=C(S(C)(=O)=O)SC3=NC2=O)ccc1OCCOc1ccc(C)cc1,·,·,·,46,-22,

# The list goes on.
SMILES,Mtb H37Rv,Arbovirus inh,YopH PTP inh,Mtb bLac sens,RecA intein inh,others
C/C(CC(=O)Nc1ccc([N+](=O)[O-])cc1)=N\NC(=O)c1ccccc1O,·,·,·,5,-2.4,
CCn1c(SCC(=O)N2CCCc3ccccc32)nnc1-c1ccoc1C,6%,1,-5,-1,-2.8,
COc1cccc(N(CC(=O)N2CCN(C)CC2)S(=O)(=O)c2ccccc2)c1,-14%,2,-41,0,1.0,
Cc1oc2ccc(OS(C)(=O)=O)cc2c1C(=O)OC(C)C,-1%,-12,·,-1,0.3,
O=C(O)CCNS(=O)(=O)c1ccccc1,1%,6,-27,0,-9.2,
O=c1[nH]c(CN2CCN(S(=O)(=O)/C=C/c3ccccc3)CC2)nc2ccccc12,-1%,-2,·,-11,-2.5,
COc1ccc(NS(=O)(=O)c2cccc(C(=O)NNC(=O)CNC(=O)c3ccc(C)cc3)c2)cc1,·,·,·,-8,-1.0,
CCOC(=O)C1(Cc2ccccc2C)CCCN(C(=O)c2ccoc2)C1 (stereo not given),·,·,·,10,4.0,
COc1ccc(N2C(=O)CSC2c2ccc(F)c(F)c2)cc1 (stereo not given),·,·,·,6,-1.6,
COc1ccc(CN2C(=O)c3ccccc3C2C(=O)NC2CCCC(C)C2C)c(OC)c1 (stereo not given),7%,3,·,·,0.7,
COc1ccc(C2C(C(=O)c3ccco3)=C(O)C(=O)N2Cc2cccnc2)cc1OC (stereo not given),-6%,6,-5,1,-2.4,Arbovirus inh repeat=3
CCC(C)Sc1nc(C)nc2c1c(=O)n(C)c(=O)n2C (stereo not given),9%,0,·,-3,2.9,
COc1cc(OC)cc(C(=O)Nc2cccc3ccccc23)c1,·,·,·,5,4.5,
COc1ccccc1-c1nnc(SC(C)C(=O)O)n1-c1ccccc1 (stereo not given),-7%,4,·,-7,-0.7,
COc1ccccc1NC(=O)CN(C)S(=O)(=O)c1cc(C)ccc1OC,1%,3,-13,1,0.4,
O=C(Nc1ccc(S(=O)(=O)N2CCOCC2)cc1)c1ccc2ncsc2c1,-3%,·,·,1,1.0,
Cc1cc(C)c2c(=O)[nH]c(SCC(=O)c3ccc(F)c(C)c3)nc2n1,0%,-12,·,5,1.3,
Cc1c(NC(=O)CN2C(=O)NC(C)(c3ccccc3Cl)C2=O)c(=O)n(-c2ccccc2)n1C (stereo not given),-4%,-4,-16,-4,0.0,
O=C(CCNC(=O)c1ccc(Br)cc1)OCc1ccccc1Cl,·,·,·,74,-1.9,
N#C/C(=C\c1cccc(O)c1)C(=O)N1CCCCC1,·,·,·,6,-1.9,
Nn1c(COc2ccccc2)nnc1SC(F)F,-2%,12,-18,-6,-0.3,
CCCn1ncc(CN2CCC(n3nccc3NC(=O)CCc3ccccc3)CC2)c1C,·,·,·,4,-0.3,
COc1ccccc1-c1noc2ncnc(Nc3cccc(C)c3)c12,·,·,·,4,-0.1,
CC(=O)Nc1cccc(NC(=O)c2cccc3cccnc23)c1,·,·,·,-4,0.1,
CCOC(=O)C1=C(C)N(CCCC(=O)O)C(=O)NC1c1ccccc1 (stereo not given),-9%,·,·,-6,-2.9,
O=C(NC1CCC1)C1CCC(=O)N(Cc2cccc(F)c2)C1 (stereo not given),·,·,·,-1,-0.2,
CC(Cc1ccccc1)C(=O)N1CCN(C)CC1 (stereo not given),-6%,-4,-14,-7,3.5,
O=C(NCC(O)c1ccccc1)c1cccc(S(=O)(=O)N2CCOCC2)c1 (stereo not given),6%,1,-19,0,-1.2,
CN1CCN(Cc2c(O)ccc3occ(C(=O)c4ccccc4)c23)CC1,-10%,3,-29,?,0.3,Arbovirus inh repeat=7
Cc1ccc(C)c(NS(=O)(=O)c2c(C)nn(C)c2C)c1,10%,8,-22,-14,1.5,

# In the list so far, these have bromine.
SMILES,Mtb H37Rv,Arbovirus inh,YopH PTP inh,Mtb bLac sens,RecA intein inh,others
COc1ccc(CCNS(=O)(=O)c2cnc(Cl)c(Br)c2)cc1OC,-8%,·,·,-3,2.2,
Cc1cc(N2CCCCC2)nc(-c2ccc(Br)cc2)n1,6%,2,·,48,14,
O=C(C1CC1)N1CCc2cc(Br)cc(S(=O)(=O)NCc3ccco3)c21,-14%,3,-15,-4,·,
O=C(CCNC(=O)c1ccc(Br)cc1)OCc1ccccc1Cl,·,·,·,74,-1.9,

# More results follow.
SMILES,Mtb H37Rv,Arbovirus inh,YopH PTP inh,Mtb bLac sens,RecA intein inh,others
O=C(CN1CCN(c2ccccn2)CC1)Nc1ccc(F)cc1,-7%,9,2,-1,-1.9,
O=C(C1CCCN(S(=O)(=O)c2cccnc2)C1)N1CCn2c1nc1ccccc12 (stereo not given),-3%,12,-24,2,2.5,Arbovirus inh repeat=-3
CNC(=O)Nc1ccc(C2SCCS2)cc1,-9%,·,·,8,1.1,
COc1ccccc1CC(=O)NC12CC3CC(CC(C3)C1)C2,·,·,·,2,-1.2,
CCn1c(SCC(N)=O)nnc1C(C)C,-23%,12,·,-2,-3.7,
Cc1nc2sc3c(O)cc(=O)[nH]c3c2c(C)c1C,·,5,-14,-3,-1.0,
N#CC(Cc1ccc(OC(F)F)cc1)c1nc2ccccc2[nH]1 (stereo not given),6%,14,-31,2,6.6,
Cc1ccc(NC(=O)c2cccc(Cl)c2)nc1,-2%,-5,-36,5,·,
CC(=O)CCC(=O)NCCc1ccccc1F,-8%,4,-41,0,-1.0,Arbovirus inh repeat=1
CC(C)(C)NC(=O)CN1C(=O)/C(=C/c2ccccc2)SC1=S,-13%,6,·,-2,2.5,
CCc1nnc(NC(=O)CSc2nc3cccnc3n2Cc2ccccc2)s1,-2%,3,-9,19,-6.2,
Cc1cc(=O)cc(C)[nH]1,-2%,5,-18,3,1.6,
CCNC(=S)NS(=O)(=O)c1ccccc1,5%,5,-42,-15,-0.4,
O=C(c1ccc(S(=O)(=O)NCc2ccco2)cc1)N1CCCC(C(F)(F)F)C1 (stereo not given),·,·,·,-14,2.2,
CN(C)S(=O)(=O)c1cc(NC(=O)CNCc2ccccc2)ccc1Cl,·,·,·,-5,-1.9,
O=C1c2ccccc2C(=O)N1CCN1CCCCC1,·,0,9,-2,1.6,
CCc1ccc(OCC(=O)N/N=C(\C)c2ccc(OC(F)F)cc2)cc1,7%,2,-13,1,2.0,
